# Screening data deposited in PubChem BioAssay by several laboratories.
# Calb FLC: affects C. albicans growth with fluconazole. C. albicans CaCi-2 (fluconazole-resistant clinical isolate) + fluconazole, Alamar Blue growth, 48 h. growth inhibition, % (no concentration beside the values). actives 0.57% (n = 300,000);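 active means most replicates above 75%; inconclusive means exactly half above 75%; inactive means most below 75%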;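 further: all wells also contain fluconazole at 8 µg/ml as a sub-toxic cotreatment; 0% = median of DMSO wells and 100% = median of geldanamycin control wells; wells of about 8 µL received 7.5 nL stock; the first replicate is given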
# A1 inh: inhibitors of the anti-apoptotic protein A1, read as caspase activation. MEF A1-2A-BIM cells, Caspase-Glo 3/7 luminescence, 3 h; percent of clofoctol response, vehicle zero. caspase activation, % (test concentration not listed). actives 0.066% (n = 330,000). AID 2462;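 active means over half of replicate activation scores above 10%, or exactly half above 10 with the replicate mean above 10; inconclusive means replicate mean below 10 yet half the replicates above 10; inactive means over half of replicates below 10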;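 further: wells of about 30 µL received 50 nL stock; many hits fall short of the cut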
# Beta apoptosis: blocks beta cell apoptosis; INS-1E cytokine-induced death, ATP luminescence, 48 h; percent of positive-control rescue, neutral wells zero; protection from apoptosis, % (no concentration beside the values); actives 0.8% (n = 300,000); AID 435005;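 active means all replicates at 75% or more, or half of them and the mean; inconclusive means half reach 75% but not the mean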;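 further: 0% = cytokine-treated negative control wells and 100% = positive control rescue; higher means more ATP so stronger rescue from cytokine killing; wells of about 40 µL received 100 nL stock; the first replicate is given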
# rRNA inh HTS: inhibitors of bacterial rRNA selective over humanized ribosomes | E. coli WT GFP vs humanized-ribosome RFP mutants, fluorescence, 24 h; active compounds read low; DMSO median 0, no signal -100 | GFP signal change (wild-type ribosome), % (test concentration not listed) | actives 1.6% (n = 350,000);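 active means significant combined selectivity score with lowered wild-type GFP, culture density cut under 30%, mutant RFP and density less affected; inactive means any of these conditions unmet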; further: one replicate is shown; some compounds called inactive have numbers as strong as hits
# T cruzi repl: blocks replication of Trypanosoma cruzi. T. cruzi beta-gal in NIH3T3, luminescence, 90 h. inhibition, % (test concentration not listed). actives 1.4% (n = 300,000);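 active means mean inhibition across valid replicates above about 55%, limit read from the data; inconclusive means mean below that limit but half or more replicates reach it; inactive means mean below it, under half of replicates reach it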;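 further: signal also drops with host cell toxicity which is not excluded here; 0% = plate median of DMSO wells and 100% = zero luminescence signal; higher percent means less beta-gal luminescence so fewer parasites; stock transfer was 50 nL into about 50 µL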
# ALR inh: human ALR oxidase inhibition via reduced H2O2 | P55789 | inhibition, % (no concentration beside the values) | actives 3.8% (n = 290,000) | purified ALR, DTT oxidation, H2O2 HRP-luminol luminescence;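 active means mean and each replicate at 75% or more; inconclusive means only one of the two met; inactive means neither met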;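 further: stock transfer was 7.5 nL into about 7.5 µL; 0% = neutral wells and 100% = wells with inactivated enzyme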
# Target sequence (P55789 whole entry, looked up): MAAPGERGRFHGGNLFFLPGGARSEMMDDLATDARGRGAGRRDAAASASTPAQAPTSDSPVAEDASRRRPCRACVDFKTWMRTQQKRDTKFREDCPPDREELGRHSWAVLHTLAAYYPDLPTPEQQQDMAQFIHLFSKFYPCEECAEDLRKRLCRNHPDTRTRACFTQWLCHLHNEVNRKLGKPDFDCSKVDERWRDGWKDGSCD
# Beta2AR agonist: human beta-2 adrenergic receptor agonism by FAP. P07550. Am2.2-beta2AR cells, FAP receptor internalization, flow cytometry; reference of the scale not given here. response, % (no concentration beside the values). actives 0.43% (n = 340,000);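 active means response above a set limit, near 3 SD of response in nonfluorescent compounds, cut at about 42% in these data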;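 further: stock transfer was 100 nL into about 11 µL; a reference agonist was the positive control; negative values mostly stem from fluorescent compounds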
# Target sequence (P07550 whole entry, looked up): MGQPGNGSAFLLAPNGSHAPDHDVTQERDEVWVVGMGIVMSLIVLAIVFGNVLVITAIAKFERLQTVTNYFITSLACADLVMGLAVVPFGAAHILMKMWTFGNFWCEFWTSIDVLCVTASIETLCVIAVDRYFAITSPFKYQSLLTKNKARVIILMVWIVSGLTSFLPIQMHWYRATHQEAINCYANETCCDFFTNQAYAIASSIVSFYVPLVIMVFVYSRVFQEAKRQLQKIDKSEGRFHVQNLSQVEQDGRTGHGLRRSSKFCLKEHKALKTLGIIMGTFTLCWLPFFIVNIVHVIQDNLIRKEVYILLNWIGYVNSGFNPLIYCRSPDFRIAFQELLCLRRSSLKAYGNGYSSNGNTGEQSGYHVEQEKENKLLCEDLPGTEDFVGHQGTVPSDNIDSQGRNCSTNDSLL
# LANA-H2A inh: blocks KSHV LANA binding to histone H2A/H2B; actives 0.6% (n = 320,000); AID 2629; cell-free LANA-H2A/H2B peptide, fluorescence polarization; Q9QR71; inhibition, % (concentration not given with the values); in the data active means inhibition mostly above about 10%, no sharp cut-off; inactive means mostly below about 6.7%;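 further: stock transfer was 7.5 nL into about 10 µL; 0% = median of vehicle wells and 100% = median of positive control wells; one replicate is shown; the record names a cut of 25% in any replicate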
# rRNA inh HTS OD600: recorded beside rRNA inh HTS, whose call it bears; OD600 change, %; measured here: OD600 growth;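 optical density of the mix in the first replicate; 0 = DMSO median and -100 = no signal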
# rRNA inh HTS RFP: second read-out of rRNA inh HTS, no call of its own (marks repeat the call); RFP signal change, %; measured here: RFP humanized mutant strains;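 first replicate; 0 = DMSO median and -100 = no signal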
# Starred values were filed as active, the others as inactive; u = inconclusive; x = not tested or not shown.
SMILES,Calb FLC,A1 inh,Beta apoptosis,rRNA inh HTS,rRNA inh HTS OD600,rRNA inh HTS RFP,T cruzi repl,ALR inh,Beta2AR agonist,LANA-H2A inh
CC(=O)c1ccc(C(=O)N2CCCC(Nc3ccccc3)C2)s1 (stereo not drawn),-5,1.0,-5,7,6,0.8,10,u,-2,-1.5
Cc1cccc(Nc2nnc(SCC(=O)Nc3ncc(C(F)(F)F)cc3Cl)s2)c1C,-2,0.0,-1,x,x,x,10,-12,-5,-1.2
O=C1CCn2nc(-c3ccc(Cl)cc3)cc2N1,20,-1.3,-3,-3,10,-4.6,1,-4,3,0.9
COc1ccc(/C=N/n2c(COc3ccccc3)n[nH]c2=S)cc1OC,13,-1.0,x,-6,-10,4.6,11,x,-3,-0.1
N#CCC(=O)Nc1ccc(C(=O)OCC(=O)NC(=O)NCc2ccco2)cc1,x,1.1,-1,5,7,26,x,98*,2,3.9
CCn1c(CCCNC(=O)c2cccs2)nc2ccccc21,-2,-0.2,4,3,-2,-3.2,-4,98*,8,3.2
COC(=O)C1=C(C)N(CCCC(=O)O)C(=O)NC1c1cccc(OC)c1 (stereo not drawn),-6,0.4,-1,10,15,-1.3,-3,-1,-4,3.3
COc1ccc(Cl)cc1N(CC(=O)NC1CC2CCC1C2)S(=O)(=O)c1ccccc1 (stereo not drawn),-7,-0.4,x,-18,-23,-6.2,37,-10,0,-0.4
COc1cccc2cc(C(C)N(CCCN3CCOCC3)C(=S)Nc3ccc(C)cc3)oc12 (stereo not drawn),-8,-0.4,-6,5,-4,5.2,31,-33,2,-3.3
COc1ccc(C(=O)OCC(=O)c2cc(C)n(CC3CCCO3)c2C)cc1[N+](=O)[O-] (stereo not drawn),x,-0.4,-2,x,x,x,x,-4,-5,5.7
O=C(NC1CCCC1)C(c1ccncc1)N(Cc1ccccc1)C(=O)Cc1cccs1 (stereo not drawn),9,-0.4,0,x,x,x,33,1,2,1.6
Cc1ccc(S(=O)(=O)Nc2c(C)ccc3nsnc23)cc1,-1,-1.0,-7,x,x,x,-10,-3,-1,2.0
COC(=O)c1ccc(C)c(NC(=O)c2ccc(CN3CCc4ccccc4C3)cc2)c1,-3,0.5,-5,14,2,1.4,12,-15,2,-0.5
Oc1[nH]c2ccccc2c1OCc1ccncc1,-7,-0.1,-8,x,x,x,-8,-1,-6,-5.0
C=C(C)C(=O)Nc1cccc(C2=NOC3(C2)C[C@H](C(N)=O)N(C(=O)C(c2ccccc2)c2ccccc2)C3)c1 (stereo partly drawn),x,1.1,-4,x,x,x,x,-10,-8,0.5
CC(C)N(C(=O)CSc1nn2c(=O)c(C(C)(C)C)nnc2s1)c1ccccc1,-4,0.2,-5,x,x,x,13,11,3,1.2
CC(=O)Nc1ccc(Oc2ccc(S(=O)(=O)N3CCCC3)cn2)cc1,x,0.6,0,x,x,x,x,-1,5,5.9
Cc1nnc(SCc2nnc(-c3ccccc3Br)o2)s1,-10,-0.7,-1,-5,-6,0.1,-20,-1,-3,-0.4
CCc1c(O)nc(SCC(=O)NC(C)(C)C)n(-c2ccccc2)c1=O,5,0.6,-12,x,x,x,-7,52,6,3.6
Cc1nc2nc(CCNS(=O)(=O)c3ccc(Cl)cc3)cn2nc1C,-17,0.1,-5,2,16,23,-7,4,1,0.7
CCc1cccc(C)c1NC(=O)C1CC(=O)N(C2CCCC2)C1 (stereo not drawn),x,0.2,2,7,11,-3.2,x,0,4,-5.8
COCCN(CC1CCCN(C2Cc3ccccc3C2)C1)C(=O)c1cccs1 (stereo not drawn),-3,-2.4,-3,0,-8,-1.1,36,-3,-6,4.1
O=C(NN1C(=O)C2C3C=CC(C3)[C@H]2C1=O)c1cccnc1 (stereo partly drawn),8,0.0,1,x,x,x,-19,5,-6,2.8
Cc1csc(C2=C(O)CN(CCc3ccccc3)C2=N)n1,8,0.2,-1,x,x,x,5,-6,-1,-3.2
Cc1ccc(C(=O)Oc2ccc3c(c2)ncn3C)cc1,-7,-1.2,-2,-18,-10,-2.9,-10,0,-1,-0.1

# Arranged by the number under ALR inh (descending): some entries from above.
SMILES	rRNA inh HTS	rRNA inh HTS OD600	rRNA inh HTS RFP	ALR inh	Beta2AR agonist	LANA-H2A inh
CCn1c(CCCNC(=O)c2cccs2)nc2ccccc21	3	-2	-3.2	98*	8	3.2
Cc1ccc(C(=O)Oc2ccc3c(c2)ncn3C)cc1	-18	-10	-2.9	0	-1	-0.1
COC(=O)C1=C(C)N(CCCC(=O)O)C(=O)NC1c1cccc(OC)c1 (stereo not drawn)	10	15	-1.3	-1	-4	3.3
Cc1cccc(Nc2nnc(SCC(=O)Nc3ncc(C(F)(F)F)cc3Cl)s2)c1C	x	x	x	-12	-5	-1.2
COC(=O)c1ccc(C)c(NC(=O)c2ccc(CN3CCc4ccccc4C3)cc2)c1	14	2	1.4	-15	2	-0.5

# (continued)
SMILES,Calb FLC,A1 inh,Beta apoptosis,rRNA inh HTS,rRNA inh HTS OD600,rRNA inh HTS RFP,T cruzi repl,ALR inh,Beta2AR agonist,LANA-H2A inh
ClC1(Cl)CC1CSc1nc2ccccc2[nH]1 (stereo not drawn),-17,-0.9,-11,-28*,-12*,-2.8*,0,x,-13,6.6
CCOC(=O)N1CCN(C(=O)COC(=O)CSc2cc(C)c(Br)cc2C)CC1,x,0.3,-8,-8,-11,0.0,-4,-22,4,2.0
CCOc1c2ccc(C(=O)NCc3cc(C(F)(F)F)cc(C(F)(F)F)c3)cc2nn1C,8,-0.2,2,-5,-6,4.6,12,-5,-5,3.6
CC(=O)c1sc(NC(=O)CCS(=O)(=O)c2ccccc2)nc1C,86*,-0.8,-39,2,3,1.4,20,21,-4,-17
Nc1nc(-c2ccc(Br)s2)c(Br)s1,0,-0.1,-5,x,x,x,14,u,6,1.2
Cc1ccc2c(c1)c1nnc(SCC(=O)Nc3cccc(Cl)c3C)nc1n2CC(=O)O,-9,0.4,0,2,3,-2.9,0,-10,5,-1.6
COc1ccc2cc[nH]c2c1,4,0.8,1,-2,5,4.4,-7,-46,7,-16
CCC(=O)N(Cc1cc2c(C)cc(C)cc2[nH]c1=O)C1CCCCC1,15,-0.2,-2,x,x,x,-19,1,-12,6.2
CN1C(=O)/C(=C/C=C2\SCCN2C)N(C)C1=S,-1,x,x,11,14,-1.8,13,x,0,x
COc1ccc(-n2c(C(C)(C)C)csc2=Nc2c(C)n(C)n(-c3ccccc3)c2=O)cc1,-9,0.4,11,-23,-30,-1.7,-9,54,11,-3.4
CCCSc1ccc([C@@H]2[C@@H]3C(=O)N(CC)C(=O)[C@@H]3[C@]3(C(=O)OC)CCCCN23)cc1,x,1.1,0,-7,-21,-12,x,-3,9,4.6
Cc1cc(NCc2ccccc2Cl)n2nnnc2n1,3,0.3,-14,x,x,x,-9,-1,7,4.1
CCOc1ccc(N2CC(C(=O)Nc3cccc(S(=O)(=O)N4CCCCC4)c3)CC2=O)cc1 (stereo not drawn),7,-1.0,2,-19,-33,-3.0,8,-18,-6,-1.0
Cc1nn(C)c(Oc2ccc(Cl)cc2)c1C=O,10,1.4,-7,x,x,x,-19,0,3,-4.5
COc1ccc(NC(=S)N2CCN(C(c3ccccc3)c3ccccc3)CC2)c(OC)c1,-2,0.0,-7,-10,-6,-3.2,5,-3,4,-3.8
CCNC(=O)COc1cc(C)c(Br)c(C)c1,-14,0.2,0,7,8,0.7,8,-2,-3,-9.7
Cn1c(C(=O)N2CCN(Cc3ccccc3)CC2)cc2c(=O)n(C)c3ccccc3c21,26,0.8,-3,-11,-14,1.8,11,-14,-5,11
S=C(c1ccc2c(c1)OCO2)N1CCOCC1,-2,0.0,-7,6,-1,-1.0,0,-18,-2,-0.7
C[C@@H](C(=O)NCC1CCCO1)N1C(=O)N2CCc3c([nH]c4ccccc34)[C@@]2(C)C1=O (stereo partly drawn),4,0.9,-2,x,x,x,-2,2,7,2.5
O=C(CCCN1C(=O)/C(=C/c2ccccc2Cl)SC1=S)NNC(=O)c1ccccc1Cl,3,-3.4,3,7,6,-3.5,-26,-18,-3,2.2
CC1CCN(c2c(NCc3ccc(C(=O)N4CCc5ccccc54)cc3)c(=O)c2=O)CC1,-7,0.5,16,9,10,2.9,28,x,-1,-2.1
CCOC(=O)c1cc2c(=O)n3ccccc3nc2n(C)c1=NC(=O)c1c(-c2c(F)cccc2Cl)noc1C,-6,0.4,-4,9,-2,-2.1,-2,-8,11,-1.5
COc1cc(OC)c(-c2nnc3n(CCc4ccccc4)c(=O)c4ccccc4n23)cc1OC,20,0.7,x,3,6,-2.4,13,-60,x,0.6
CCC(C(=O)N1CCc2cc(OC)c(OC)cc2C1)c1ccccc1 (stereo not drawn),-6,1.9,1,x,x,x,10,-22,6,4.5
O=C(Nc1ccccc1C(=O)N/N=C/c1ccncc1)c1ccccc1,9,-7.1,41,-4,-2,-2.1,2,12,-8,0.8
COC(=O)c1ccc(N(CC(=O)NC2CCCC2)C(=O)CNC(=O)c2cccs2)cc1,-7,0.9,-3,3,4,-0.4,2,4,-3,-2.0
Cc1ccc(NS(=O)(=O)c2c(C(=O)N3CCCCCC3)c(C)n(C)c2C)c(Cl)c1,2,-0.4,-4,-1,-9,1.8,0,2,-5,-2.2
Cn1c(CN2CCOCC2)nnc1SCC(N)=O,-3,0.1,-4,x,x,x,-2,x,-3,1.5
COc1cc(C=O)ccc1OC(=O)Nc1ccccc1,-5,0.3,-6,12,12,-4.6,-8,-1,0,3.0
CN1CCN(Cc2c(O)c(Cl)cc3c(-c4ccccc4)cc(=O)oc23)CC1,36,0.6,0,x,x,x,-2,-1,3,0.1

# An excerpt from the list above, as a working copy:
SMILES,Calb FLC,A1 inh,Beta apoptosis,rRNA inh HTS,rRNA inh HTS OD600,rRNA inh HTS RFP,T cruzi repl,ALR inh,Beta2AR agonist,LANA-H2A inh
CCOc1ccc(N2CC(C(=O)Nc3cccc(S(=O)(=O)N4CCCCC4)c3)CC2=O)cc1 (stereo not drawn),7,-1.0,2,-19,-33,-3.0,8,-18,-6,-1.0
Cc1nn(C)c(Oc2ccc(Cl)cc2)c1C=O,10,1.4,-7,x,x,x,-19,0,3,-4.5
COc1ccc(NC(=S)N2CCN(C(c3ccccc3)c3ccccc3)CC2)c(OC)c1,-2,0.0,-7,-10,-6,-3.2,5,-3,4,-3.8
CCNC(=O)COc1cc(C)c(Br)c(C)c1,-14,0.2,0,7,8,0.7,8,-2,-3,-9.7
Cn1c(C(=O)N2CCN(Cc3ccccc3)CC2)cc2c(=O)n(C)c3ccccc3c21,26,0.8,-3,-11,-14,1.8,11,-14,-5,11
S=C(c1ccc2c(c1)OCO2)N1CCOCC1,-2,0.0,-7,6,-1,-1.0,0,-18,-2,-0.7

# A portion of the library, so the mix of outcomes need not match the whole.
